VACV mCherry inh: inhibitors of vaccinia virus infection (mCherry reporter signal); Vaccinia virus mCherry reporter infection, fluorescence; about a quarter of the inactives have no number; Potency, µM (doses to about 36.5 µM), for inactives: top-dose activity change, negative = inhibition, usual class: inhibitors; hit rate 0.63% among 310,000; AID 720579; active = well fitted inhibition curve with a large enough effect; inconclusive = small, poorly fitted or top-dose-only effect; inactive = no such curve, though single readings can be large or run the other way; tested in A549 cells; also: nearly all actives have a fitted effect of over 35% in size; inactives centre near -10
VACV Venus inh: vaccinia inhibition (Venus reporter); Vaccinia virus Venus reporter expression, fluorescence; Potency, µM (titrated, usually from 36.5 µM), inactives show at the highest dose activity change, negative = inhibition, most hits filed as inhibitors; hit rate 0.46% among 330,000; active means well fitted inhibition curve with a large enough effect; inconclusive means small, poorly fitted or top-dose-only effect; inactive means no such curve, though single readings can be large or run the other way; tested in A549 cells; also: nearly all actives have a fitted effect of over 30% in size; inactives centre near -10
* marks the source's active call; other numbers are inactive results; i = inactive; ? = inconclusive; · = no result given; [ ] = dose if it differs, or a comment. % is scaled to controls: 0 for no effect and ±100 for the full control effect; potency is read from the fitted curve at half-maximal effect.

The line under a structure holds: VACV mCherry inh, VACV Venus inh
- CCN(CC)S(=O)(=O)c1ccc(Cl)c(NC(=O)COC(=O)c2cc(-c3ccccc3Cl)nc3ccccc23)c1
 : -6%, -19%
- Cc1cc(/C=N/O)c(C)n1-c1ccc(Br)cc1
 : -11%, 3%
- Brc1cccc(OCCCCN2CCCCC2)c1
 : -17%, -9%
- COc1ccc(/C=N/NC(=O)CN(C2=NS(=O)(=O)c3ccccc32)c2ccccc2)cc1
 : i, -14%
- C=C(C)c1cccc(C(C)(C)NC(=O)Nc2cccnc2)c1
 : i, -17%
- COC(=O)c1ccc2c(c1)N(Cc1ccc(Cl)cc1)C(=O)c1ccccc1S2
 : 9%, 14%
- Cc1ccc(-n2nc(C(=O)N3CCN(c4cc(Cl)ccc4C)CC3)c(=O)n(C)c2=O)cc1
 : -14%, -5%
- COc1ccc2c(c1)c1c(c(=O)n(CCc3ccccc3)c(=O)n1Cc1cccc(F)c1)n2C
 : -21%, -17%
- Cc1ccc(S(=O)(=O)Cc2ccc(C(=O)O)o2)cc1
 : -3%, 6%
- COCCCn1cc(CN2CC(N3CCN(C4CCN(C)CC4)CC3)CS2(=O)=O)nn1 (stereo unspecified)
 : -10%, 1%
- COC(=O)C1=C(C(=O)OC)C(c2cc(Cl)ccc2O)c2sc(=O)[nH]c2S1 (stereo unspecified)
 : -6%, 83%[activator]
- C/C(Cc1nnn(-c2cc(C)on2)n1)=N\O
 : i, -1%
- COc1ccc(C(CNC(=O)CCNS(=O)(=O)c2ccc(Br)cc2)N2CCCC2)cc1 (stereo unspecified)
 : -19%, -18%
- CCCN(c1ccccc1CC)S(=O)(=O)c1ccc2c(c1)CC(C)N2C(=O)C1CC1 (stereo unspecified)
 : ?, ?
- CC(C)C[C@H](NC(=O)c1nc[nH]c1C(=O)NCc1ccc(CNC(=O)OC(C)(C)C)cc1)C(=O)OC(C)(C)C
 : ?, ?
- CC(C)[C@H](NC(=O)c1ccccc1)C(=O)OCC(=O)Nc1ccc(S(=O)(=O)N2CCOCC2)cc1
 : -14%, -4%
- Cc1c(Br)c(C(F)(F)F)nn1CC(=O)NCc1ccco1
 : i, -4%
- O=C(NCc1ccccc1CN1CCCC1)C1CCN(C(=O)c2ccc(Cl)cc2)CC1
 : i, -7%
- CCOc1ccccc1OCC(=O)OCC(=O)NNC(=O)c1ccc([N+](=O)[O-])cc1
 : i, -7%
- O=C(COC(=O)c1ccccc1O)Nc1cccc(S(=O)(=O)NC2=NCCCCC2)c1
 : -9%, -6%
- CCOC(=O)C1CCCN(C(=O)C(=O)c2cn(CC(=O)N3CCOCC3)c3ccccc23)C1 (stereo unspecified)
 : -9%, 2%
- Nc1nnc(SC2CC(=O)N(c3ccccc3)C2=O)s1 (stereo unspecified)
 : -6%, 12%
- Cc1cc(C)c(S(=O)(=O)NCC2CCC(C(=O)N3CCC4(CC3)OCCO4)CC2)c(C)c1 (stereo unspecified)
 : -8%, -27%
- Cc1ccc(C(=O)N2CCN(c3ccccc3)CC2)cc1S(=O)(=O)N1CCCC1
 : ?, -29%
- CC(C)N1CCC(N2CCN(C3CCCCC3)CC2CCO)CC1 (stereo unspecified)
 : -16%, -18%
- CC(=O)Nc1ccc2nc(NC(=O)c3cccnc3)sc2c1
 : ?, -16%
- COC(=O)[C@@H]1CC[C@@](C)(c2ccc(OC)cc2)C1(C)C
 : i, -2%
- CC1CCCC(NC(=O)COC(=O)c2ccc([N+](=O)[O-])s2)C1C (stereo unspecified)
 : -1%, -10%
- CC(C)C(=O)Nc1ccc(NC(=O)c2ccco2)cn1
 : i, -15%
- CN(c1cccc(Cl)c1)S(=O)(=O)c1cccc(C(=O)Nc2ccc3c(c2)CCC3)c1
 : -10%, -25%
- CCCN1CCC(NC(=S)Nc2ccc(C(=O)OCC)cc2)CC1
 : -7%, -13%
- COc1ccc(-c2cn[nH]c2-c2ccc(OCc3ccccc3)cc2O)cc1
 : ?, -22%
- O=C(NCc1nnnn1-c1ccc(Cl)cc1)C(=O)c1c[nH]c2ccccc12
 : -11%, -23%
- CCOC(=O)N1CCc2c(sc3c2C(=O)NC(c2ccc(N(C)C)cc2)N3)C1 (stereo unspecified)
 : -22%[7.34 µM], -18%[7.34 µM]
- O=C(Nc1cccc(OCC(=O)N2CCOCC2)c1)C1CCCCC1
 : -19%, -11%
- Cc1cccc(-n2c(-c3ccc([N+](=O)[O-])cc3)nc3ccccc3c2=O)c1
 : i, -5%
- CCOc1ccc(-c2nnc(SCC(=O)c3ccc(Br)cc3)n2-c2ccccc2)cc1
 : 4%, -5%
- CC(C)N(C(=O)[C@H]1C[C@H](CC(=O)NCc2cccc(C(F)(F)F)c2)C(=O)N2CCc3c([nH]c4cc(-c5ccco5)ccc34)[C@]12C)C(C)C
 : ?, -28%
- Cc1ccc(S(=O)(=O)Nc2ccc3c(c2)CCCN3C(=O)c2cccs2)cc1C
 : i, ?
- CCOc1ccc(-n2c(SCC(=O)O)nc3sc4c(c3c2=O)CCCC4)cc1
 : -2%, -15%
- COCCN(CC(=O)Nc1ccccc1C(F)(F)F)C(=O)/C=C/c1cc(Cl)c2c(c1)OCCO2
 : i, -24%
- COC(=O)c1ccc(/C=N/NC(=O)C(=O)NCc2ccccc2)cc1
 : -14%, -13%
- CCCCn1c(N)c(N(CC(C)C)C(=O)c2cc(Cl)nc3ccccc23)c(=O)[nH]c1=O
 : i, -15%
- CCc1ccc(S(=O)(=O)NCc2csc(C)n2)s1
 : ?, -23%
- CCc1cc2cc(C(=O)N3CCN(c4ccccc4)CC3)sc2s1
 : ·, ?
- Cn1c(=O)n(C)c2cc(NS(=O)(=O)c3ccccc3)c(NCc3ccccc3)cc21
 : -5%, -8%
- O=C(C1CCCN(S(=O)(=O)c2ccc(Br)s2)C1)N1CCN(c2ccccc2F)CC1 (stereo unspecified)
 : -21%, -6%
- Cc1cc(C(=O)CSc2nnc(-c3ccc(Cl)cc3)n2C)c(C)n1CC1CCCO1 (stereo unspecified)
 : i, -12%
- Cc1cccnc1NC(=O)Cn1nc(C)c([N+](=O)[O-])c1C
 : ·, 0%
- O=C(NCCc1ccccn1)c1cccc(S(=O)(=O)N2CCc3ccccc32)c1
 : -29%, -15%
- COc1ccccc1-n1c(-c2ccco2)n[nH]c1=S
 : i, -2%
- CCOc1ccc(CCNC(=O)c2c(C)oc3ncn(CC(C)C)c(=O)c23)cc1
 : -10%, 2%
- Cc1ccc(Nc2nnc(SCC(=O)Nc3ccc(S(=O)(=O)N4CCOCC4)cc3)s2)cc1
 : -30%, -24%
- COC(=O)C[C@H]1C=C[C@H](NC(=O)Cc2ccccc2)[C@@H](CO)O1
 : -1%, 0%
- COc1cc(C2C3C(=O)N(Cc4ccccc4)C(=O)C3ON2c2ccccc2)cc(OC)c1O (stereo unspecified)
 : ·, -18%
- O=S(=O)(/N=S1/CC=CCN1S(=O)(=O)c1ccccc1)c1ccccc1 (stereo unspecified)
 : ·, -11%
- Nc1nc2n(n1)C(c1ccco1)CC(c1ccc(F)cc1)N2 (stereo unspecified)
 : 1%, -5%
- N#Cc1cc2c(nc1SCc1ccncc1)CCC2
 : -12%, -20%
- COC(=O)C[C@H]1C[C@H]2c3cc(NC(=O)C4CCC4)ccc3O[C@H]2[C@H](CO)O1
 : i, -1%
- Cc1ccc(C)c(NC(=O)CN(C)C(=O)c2ccc3[nH]c4c(c3c2)CC(C)CC4)c1 (stereo unspecified)
 : ?, ?

(cont.)
The line under a structure holds: VACV mCherry inh, VACV Venus inh
- O=C(O)c1cccc(-c2nnn(Cc3ccccc3Cl)n2)c1
 : -7%, 3%
- O=C(c1ccccc1)N(Cc1nc2ccccc2c(=O)[nH]1)C1CCCC1
 : -4%, -15%
- O=C1N(c2ccccc2)c2ccccc2[C@]12C[C@H](O)CO2
 : -20%, 5%
- CNC(=S)NC12CC3CC(CC(C3)C1)C2
 : -14%, -9%
- Nc1nnnn1/N=C/c1cccc(O)c1
 : ·, -12%
- COc1ccc(C2CC(c3cccc(Cl)c3)=NN2c2ccc(S(N)(=O)=O)cc2)cc1 (stereo unspecified)
 : ?, -28%
- CCOc1ccc(Cn2c(CNS(=O)(=O)c3ccc(C(C)(C)C)cc3)nc3cccnc32)cc1
 : -6%, -4%
- O=C(Nc1ccc(Br)cc1F)c1sccc1-n1cccc1
 : -6%, -11%
- Cc1cc(OCC(=O)OCC(=O)N(C)C2CCS(=O)(=O)C2)ccc1Cl (stereo unspecified)
 : -10%, -7%
- Cc1ccc(Cn2ncc3c(N4CCN(Cc5ccc(Cl)cc5)CC4)ncnc32)cc1
 : -27%, -18%
- C=CCn1c(COc2ccc(OC)cc2)nnc1SCn1nnc2ccccc2c1=O
 : -13%, -6%
- COc1ccc(CC(=O)N2CCc3c([nH]c4ccccc34)C2c2ccc(SC)cc2)cc1 (stereo unspecified)
 : -13%, -5%
- CCN(CC)C(=O)Cn1c(=O)n(-c2ccc(Cl)cc2)c(=O)c2c3c(sc21)CCC3
 : -13%, -6%
- Cc1cc(C(=O)Nc2ccc(Cl)cc2)c(C)n1-c1ccccc1
 : -13%, -15%
- CCCOC(=O)c1ccc(-[n+]2c(-c3ccccc3)cc(-c3ccccc3)cc2-c2ccccc2)cc1
 : -6%, ?
- CCOc1nc(NC(=O)NS(=O)(=O)Oc2ccccc2)nc(-c2ccccc2)n1
 : -1%, 5%
- CCCCOc1ccc(/C=C/C(=O)NC2=Nc3ccccc3NC(C)=C2C(=O)OCC)cc1OC
 : i, -12%
- COc1ccc(OC)c(S(=O)(=O)Nc2ccc(-c3ccc4nnc(C)n4n3)cc2)c1
 : -29%, ?
- Cc1noc(C)c1CSCC(=O)N(C)CC(=O)Nc1ccc(Cl)c(C(F)(F)F)c1
 : -9%, -3%
- O=C(O)/C=C/c1cccc(NC(=O)c2ccccc2)c1
 : i, -11%
- Cc1sc(-c2ccncc2)nc1OC(=O)c1ccc(Cl)cc1
 : ·, -19%
- CSc1nsc(SCC(=O)Nc2ccc(Cl)c(C(=O)O)c2)n1
 : 9%, 4%
- c1ccc(C2NCCNC2c2ccccc2)cc1 (stereo unspecified)
 : -24%, -2%
- CCNc1nc(NCC)n2c(SCC(=O)NC34CC5CC(CC(C5)C3)C4)nnc2n1
 : -22%, -27%
- Cc1cnc(C)c(N2CCN(C(=O)C3CCC(=O)N(CCc4cccc(F)c4)C3)CC2)n1 (stereo unspecified)
 : -3%, -15%
- CC(C)NC(=O)Nc1ccc2c(c1)C(=O)N([C@H](C)CO)C[C@H](C)[C@@H](CN(C)Cc1ccc3c(c1)OCO3)OCCCC[C@@H](C)O2
 : -8%, -7%
- CC1CCCCC12NC(=O)N(CC(=O)OCc1ccccc1F)C2=O (stereo unspecified)
 : -27%, -23%
- COc1ccccc1OCC(=O)NCc1nc(-c2ccc(Cl)cc2)no1
 : -13%, -13%
- CC1C(=O)OC2C1CC[C@@]1(C)C=CC(=O)[C@@]3(C)O[C@@]213 (stereo partly specified)
 : -14%, -4%
- CCn1ccnc1CNC(=O)CC1C(=O)NCCN1Cc1ccc(OC)cc1OC (stereo unspecified)
 : i[7.34 µM], -11%[7.34 µM]

A run of entries taken from the entries so far, as a working copy:
The line under a structure holds: VACV mCherry inh, VACV Venus inh
- Cc1cnc(C)c(N2CCN(C(=O)C3CCC(=O)N(CCc4cccc(F)c4)C3)CC2)n1 (stereo unspecified)
 : -3%, -15%
- CC(C)NC(=O)Nc1ccc2c(c1)C(=O)N([C@H](C)CO)C[C@H](C)[C@@H](CN(C)Cc1ccc3c(c1)OCO3)OCCCC[C@@H](C)O2
 : -8%, -7%
- CC1CCCCC12NC(=O)N(CC(=O)OCc1ccccc1F)C2=O (stereo unspecified)
 : -27%, -23%
- COc1ccccc1OCC(=O)NCc1nc(-c2ccc(Cl)cc2)no1
 : -13%, -13%
- CC1C(=O)OC2C1CC[C@@]1(C)C=CC(=O)[C@@]3(C)O[C@@]213 (stereo partly specified)
 : -14%, -4%
- CCn1ccnc1CNC(=O)CC1C(=O)NCCN1Cc1ccc(OC)cc1OC (stereo unspecified)
 : i[7.34 µM], -11%[7.34 µM]

Additional records.
Compound	VACV mCherry inh	VACV Venus inh
C/C(CC(=O)Nc1ccc2c(c1)OCCO2)=N\NC(=O)COc1ccc(C)cc1	-14%	-7%
COc1ccc(-c2cc(C(=O)Nc3cc(C)on3)c3ccccc3n2)c(OC)c1	-10%	-7%
COc1cc2c(C(=O)N3CCN(c4ccccc4C)CC3)c(C)oc2cc1Br	-9%	-5%
C=CCN(CC=C)CC(=O)Nn1c(C)ccc1C	-18%	-8%
CCOC(=O)C1CCN(C(=O)c2cccc(S(=O)(=O)N3CCCc4ccccc43)c2)CC1	-19%	2%
COc1ccc(S(=O)(=O)c2c(C(=O)c3ccc(C)c(C)c3)cnc3ccc(C)cc23)cc1	-26%	-10%
COc1ccc(C(=O)NCC(c2cccs2)S(=O)(=O)c2ccc(F)c(C)c2)cc1 (stereo unspecified)	3%	-4%
O=C(NCCc1ccccc1)C1CCCN1C(=O)Nc1ccc(F)cc1 (stereo unspecified)	-11%	0%
Cc1c(C(=O)OC2CCCCCC2)[nH]c2c1C(=O)CC(c1ccc(N(C)C)cc1)C2 (stereo unspecified)	-5%	-6%
COc1cccc(-c2nn(C)c3sc(C(=O)NCc4ccco4)cc23)c1	-14%	?
O=C(CCCn1c(=S)[nH]c2ccsc2c1=O)NCc1ccco1	-11%	-4%
Fc1ccc(CNc2ncnc3c2c(-c2ccccc2)cn3-c2ccccc2)cc1	i	-8%
CC(=NCC1CCCO1)c1c(O)n(-c2ccccc2C)c(=O)[nH]c1=O (stereo unspecified)	-24%	-6%
CCOC(=O)C1=C(C)NC(C)=C(C(=O)OCC)C1C(=O)OCC(=O)NC(C)c1ccccc1 (stereo unspecified)	?	-26%
COC(=O)Cc1c(C(=O)OC)nnn1-c1cccc(C(F)(F)F)c1	i	7%
COc1cccc(NC(=O)c2ccccc2C(F)(F)F)c1	-28%	1%
